GALR2 ag: activates the human galanin receptor 2; O43603; GALR2-expressing cells, agonist activation read-out; activation, %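 (tested at 5 µM)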; 0.48% of 140,000 active; AID 803;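 active = above mean plus 3 SD of all compounds, about 5% in these data, not always enough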;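 note: 0% = vehicle buffer wells and 100% = reference agonist at full effect; tested in CHO reporter cells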
Target sequence (O43603 whole entry, looked up): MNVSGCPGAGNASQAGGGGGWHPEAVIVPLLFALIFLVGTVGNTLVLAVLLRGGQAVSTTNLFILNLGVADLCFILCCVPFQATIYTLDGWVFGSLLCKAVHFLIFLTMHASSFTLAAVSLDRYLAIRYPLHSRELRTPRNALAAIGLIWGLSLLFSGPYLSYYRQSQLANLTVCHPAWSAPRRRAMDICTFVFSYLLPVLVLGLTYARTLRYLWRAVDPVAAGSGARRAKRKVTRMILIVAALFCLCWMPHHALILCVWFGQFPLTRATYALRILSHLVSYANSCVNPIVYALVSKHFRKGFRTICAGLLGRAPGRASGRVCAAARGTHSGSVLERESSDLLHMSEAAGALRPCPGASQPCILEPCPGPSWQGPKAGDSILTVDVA
INS promoter inh: TRM-6 insulin promoter activity inhibition; TRM-6 cells (human fetal islet line), insulin promoter-eGFP reporter, imaging; reporter expression induced with tamoxifen; inhibition, % at 2 µM; 0.9% of 130,000 active;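 active = inhibition above the mean plus 3 SD, with well images judged a real hit on visual review, cut at about 60% in these data, passing the limit was not always enough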
HSV augment: increases HSV replication in cells; HSV replication augmentation in cells, fold increase; maximum fold increase; 0.005% of 220,000 active;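 active = peak rise of 1.5-fold or more in the series; tested in PC3 cells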;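 note: first round at 10 µM; read as green reporter fluorescence; hits show the peak of a series up to 25 µM; 1 = signal of infected wells without compound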
PKD1 inh: PKD1 (human) kinase inhibition. PKD1 kinase fluorescence polarization assay. inhibition, %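 (about 10 µM by stock and volumes)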. 0.056% of 200,000 active. AID 797;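 active = inhibition of 50% or more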;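 note: controls were vehicle for no effect and a reference inhibitor for full effect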
RGS16-Gao: RGS16-Galphao interaction regulator (human); O15492+P09471; bead-based flow cytometry RGS16-Galphao binding, fluorescence; actives lie on both sides; binding response (% of control), % at 10 µM; 0.38% of 220,000 active; AID 1441;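 active = below 25% or above 175%, edge rows of some plates excepted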;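 note: Galphao activated by GDP with aluminum fluoride before binding; 100% = wells without compound and 0% = beads without RGS; some results beyond the cut were filed as inactive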
Target sequence (O15492 whole entry, looked up): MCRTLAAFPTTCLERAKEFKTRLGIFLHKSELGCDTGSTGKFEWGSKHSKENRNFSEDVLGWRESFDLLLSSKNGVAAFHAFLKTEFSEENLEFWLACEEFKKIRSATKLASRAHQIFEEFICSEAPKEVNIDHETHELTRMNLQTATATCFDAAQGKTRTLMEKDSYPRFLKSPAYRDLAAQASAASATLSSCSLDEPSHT
Target sequence (P09471 whole entry, looked up): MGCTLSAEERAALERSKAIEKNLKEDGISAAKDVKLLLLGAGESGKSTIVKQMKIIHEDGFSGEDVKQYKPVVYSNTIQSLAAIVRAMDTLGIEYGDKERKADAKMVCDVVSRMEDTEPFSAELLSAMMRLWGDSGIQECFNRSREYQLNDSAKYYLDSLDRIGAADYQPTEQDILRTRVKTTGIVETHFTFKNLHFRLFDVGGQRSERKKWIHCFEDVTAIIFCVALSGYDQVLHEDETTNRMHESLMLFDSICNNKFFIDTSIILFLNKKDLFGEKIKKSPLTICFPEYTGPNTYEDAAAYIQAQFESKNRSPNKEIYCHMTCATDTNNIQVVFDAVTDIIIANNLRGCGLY
INS promoter inh cell count: recorded beside INS promoter inh, whose call it bears; normalized cell count, %; measured here: cell count, toxicity; reference of the scale not given here;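 cells exposed to compound for 48 h; stained nuclei by imaging scaled within each plate; lower means fewer cells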
HSV augment primary fold: second read-out of HSV augment, no call of its own (marks repeat the call); fold increase; compound at 10 µM; measured here: primary screen fold increase 10 uM; tested in PC3 cells;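 GFP signal in the first replicate; 1 = infected wells without compound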
Active calls of the source: *; i = inactive; · = no result given. Rows are unselected, and some 1.3% of all compounds hit somewhere here.

mol	GALR2 ag	INS promoter inh	INS promoter inh cell count	HSV augment	HSV augment primary fold	PKD1 inh	RGS16-Gao
CCCCNC(=O)c1cc2c(=O)n3cccc(C)c3nc2n(CCN2CCOCC2)c1=N	0.2	-15.6	71.4	·	·	-1.6	98.5
Cc1cc(C)nc(-n2nc(C)c3c(C)c(C)c(C)nc32)n1	-1.5	0.0	69.8	i	0.88	-1.6	109.3
O=C(Nc1nc2c(s1)CCCC2)c1ccc(S(=O)(=O)N2CCCc3ccccc32)cc1	-2.1	35.1	132.0	i	0.84	-2.6	91.0
CCOC(=O)N1CCN(C(=O)Cn2nc(-c3ccc(Cl)cc3)ccc2=O)CC1	-3.9	46.7	108.7	·	·	-4.0	78.9
O=C(NCN1CCN(c2ccccc2F)CC1)c1ccccc1	-2.8	26.9	103.7	i	0.81	-0.6	94.3
COc1ccc(NC(=O)c2ccc(-c3ccc([N+](=O)[O-])cc3)o2)cc1	·	·	·	i	1.05	8.3	104.5
Cc1ccc(-n2c(=O)c3ccccc3n(CC(=O)C(C)(C)C)c2=O)cc1	·	2.7	83.0	i	0.87	-6.6	104.6
CC(=O)c1c(N2CCOCC2)nc(=S)n(-c2ccc([N+](=O)[O-])cc2)c1C	-2.2	-21.7	110.0	·	·	1.0	94.6
Cc1nc(NS(=O)(=O)c2ccccc2)sc1NC(=O)OCCN(C)C	-1.1	14.3	94.6	i	1.29	-4.2	103.1
Nc1sc(-c2ccccc2)cc1C(=O)N/N=C/c1ccc(Cl)cc1	·	·	·	i	1.07	·	102.9
COc1ccc2c(CCNC(=O)Nc3ccccc3)c[nH]c2c1	·	·	·	i	0.98	3.5	111.1
CCN1CCN(c2cc(C)c3cc(NC(=O)c4cccnc4Cl)ccc3n2)CC1	-0.3	3.6	121.6	i	0.95	-1.4	98.6
CC/C=C/C(=O)N1CC2(CC(c3cccc(NC(=O)COc4ccc(Cl)cc4)c3)=NO2)C[C@H]1C(N)=O (some centres not stated)	·	·	·	i	0.81	·	74.0
O=C(CCCN1C(=O)/C(=C/c2ccccc2Cl)SC1=S)NNC(=O)c1ccc(Cl)cc1Cl	·	·	·	i	0.86	·	99.9
CN1CCN(C(=O)c2ccccc2-c2nc(-c3ccccc3)no2)CC1	0.0	·	·	i	0.93	5.1	124.9
Cc1csc(NC(=O)c2c(-c3c(Cl)cccc3Cl)noc2C)n1	-2.3	-50.0	134.2	i	0.957	3.3	103.8
O=C(COc1ccccc1[N+](=O)[O-])N(Cc1ccccc1)c1ccccn1	·	·	·	i	0.94	-10.4	95.0
CC1(OC(=O)CCc2ccccc2)C(=O)C=C2C=C(c3ccc(C#N)cc3)N(Cc3ccccc3)C=C2C1=O (configuration not stated)	·	·	·	i	0.98	·	106.6
CC1CCC2C(=O)N(c3ccc(C(=O)Oc4cccc5cccnc45)cc3)C(=O)C2C1 (configuration not stated)	-0.9	·	·	i	0.95	0.8	105.1
CCOc1ccc(C(=O)O)cc1OC	-1.5	-6.1	87.1	i	0.98	-12.1	98.5
CN1CCN(C2=Cc3cc(Cl)ccc3Sc3cc(F)ccc32)CC1	1.0	-9.5	84.3	i	0.613	-0.3	46.5
COCCCn1cnnc1SCC(=O)Nc1ccc(S(=O)(=O)N2CCCC2)cc1	-3.9	13.0	119.0	i	0.87	-2.4	98.6
COc1cc2c(cc1OC)C1=C(C#N)CC/C(=N\S(=O)(=O)c3cccc(Cl)c3)N1CC2	0.2	-86.8	82.6	i	0.86	-5.2	101.7
CCCn1c2c(c(O)c(C(=O)Nc3nc4ccccc4s3)c1=O)CCCC2	·	-4.8	108.4	i	0.94	6.7	18.9
COc1ccc(N2C(=O)CC(N(Cc3ccc(S(N)(=O)=O)cc3)C(C)=O)C2=O)cc1 (configuration not stated)	-1.6	-38.5	108.7	i	0.9	-5.9	108.6
Cc1nn(CC2CCCCC2)c(N)c1-c1ccccc1	1.5	30.8	96.2	i	1.01	-10.1	99.1
COc1ccc2ccccc2c1CNCc1ccccn1	0.6	10.7	163.8	i	0.78	-5.7	100.8
CCCOc1cccc(C(=O)Nc2cccnc2)c1	-0.5	·	·	i	0.81	4.2	104.2
Cc1ccc(Nc2nc(-c3sc(NC(=O)c4ccco4)nc3C)cs2)cc1	-0.4	-4.5	70.8	i	0.9	0.3	82.1
O=C(O)c1ccccc1-c1ccccc1C(=O)Nc1cccc2ccccc12	-2.1	·	·	i	1.02	-9.6	98.0
COc1ccc(OC)c2[nH]c(=O)c(CCNC(=O)C3CCCCC3)cc12	-0.7	·	·	i	0.76	-5.5	107.3
O=C1CC(Nc2ccc(N3CCOCC3)cc2)C(=O)N1c1ccccc1F (configuration not stated)	-2.7	·	·	i	0.79	-2.0	101.0
COc1cccc(NC(=O)Cn2cc(C#N)c3ccccc32)c1	-1.6	-4.8	126.1	i	0.983	-10.3	110.7
COc1ccc2nc(-c3cccc(N)c3)[nH]c2c1	-1.2	·	·	i	0.8	-1.9	102.7
CCCCCCC(=O)OCC(=O)c1ccc2c(c1)NC(=O)CO2	·	·	·	i	0.97	-3.7	102.4
Cc1nn(-c2ccccc2)cc1/C=N/NC(=O)c1cccs1	·	·	·	i	0.93	·	99.7
O=C(CNC(=S)N(Cc1ccccc1F)C1CCCCC1)NCCCN1CCOCC1	·	0.0	114.4	i	0.85	-2.3	105.4
O=C(c1ccc(Cn2c(=S)[nH]c3ccc(Br)cc3c2=O)cc1)N1CCN(C2CCCCC2)CC1	·	12.5	71.3	i	0.72	3.7	86.8
O=C(/C=C/c1cccs1)N1CCc2ccccc21	-0.3	16.7	105.6	·	·	1.4	102.7
CCN(CC)S(=O)(=O)c1ccc(NC(=O)COC(=O)CCc2cc(OC)c(OC)c(OC)c2)cc1	0.3	·	·	i	0.95	1.7	90.0
CCCCCCn1c(C(C)NC(=O)c2ccco2)nc2ccccc21 (configuration not stated)	-1.2	-15.2	91.8	i	0.9	0.9	109.8
CC(=O)Nc1ccc2c(c1)NC(=O)CC2	·	-52.4	111.1	i	0.92	-5.6	97.4
C=CCn1c(=N)n(CC(=O)O)c2ccccc21	-1.4	·	·	i	0.87	-5.1	104.3
Clc1ccc(CN2CCCCCCC2)cc1	-1.0	·	·	i	1.2	1.0	82.8
CN(C)c1cc(N/N=C\c2ccccc2)nc(N(C)C)n1	·	·	·	i	0.98	-8.4	77.7
COC(=O)c1cnn(-c2cc(Oc3cccc(C)c3)ncn2)c1N	-2.6	32.4	136.3	i	0.91	-2.8	104.1
O=C(CN(Cc1cccs1)C(=O)CNS(=O)(=O)c1ccc(Cl)cc1)NCc1ccco1	-1.8	-64.3	141.7	i	0.96	-6.6	92.3
O=C(COC(=O)CCc1c[nH]c2ccccc12)Nc1ccc([N+](=O)[O-])cc1	-0.3	·	·	i	0.96	-3.4	117.4
Cc1ccc(S(=O)(=O)N(C)c2ccc(C(=O)N3CCC(C(N)=O)CC3)cc2)cc1	0.8	-41.0	134.4	i	1.05	6.8	100.5
CCc1ccc2[nH]c(=O)c(CN(Cc3ccccc3)C(=O)Nc3ccccc3OC)cc2c1	-1.2	30.4	126.7	i	0.62	-2.0	108.0
COCCN1CCN(Cc2cn[nH]c2-c2cc3ccccc3o2)CC1	·	15.0	104.0	i	0.74	-0.5	110.0
O=C(CCC(=O)c1cccs1)OCC(=O)N1CCN(S(=O)(=O)c2ccccc2)CC1	-0.5	·	·	i	0.86	2.4	100.0
CC(C)(C)NC(=O)C(c1cccs1)N(C(=O)c1csnn1)c1ccccc1F (configuration not stated)	·	·	·	i	0.99	-8.8	97.1
Nc1ncnc(Nc2ccc(F)cc2)n1	-0.9	-35.7	163.9	i	0.88	-2.7	104.2
Cc1ccnc(NS(=O)(=O)c2ccc(NC(=O)CCS(=O)(=O)c3ccccc3)cc2)n1	·	-33.3	98.0	i	0.94	-7.0	102.1
N#CCCn1cnc2ccccc21	-0.7	25.9	116.2	i	1.04	-3.9	99.5
Cc1ccccc1C(=O)OCc1cnc(Cl)s1	·	·	·	i	1.06	1.3	96.6
COc1ccc(N2CCN(S(=O)(=O)c3cn(C)c(=O)n(C)c3=O)CC2)cc1	·	·	·	i	1.02	·	103.2
CN(C)N=Nc1nc2c([nH]1)c(=O)n(C)c(=O)n2C	·	·	·	i	1.14	·	106.7
O=C1OCCN/C1=C\C(=O)c1ccccc1	·	·	·	i	0.92	·	103.8

(cont.)
mol	GALR2 ag	INS promoter inh	INS promoter inh cell count	HSV augment	HSV augment primary fold	PKD1 inh	RGS16-Gao
CC1CCCCN1S(=O)(=O)c1ccc(C(=O)Nc2ccccc2-c2nc3ccccc3[nH]2)cc1 (configuration not stated)	1.4	-6.7	71.0	i	0.74	-7.1	99.5
Cc1ccc(-n2ncc3ccccc3c2=O)cc1Cl	·	·	·	i	1.01	-4.5	114.1
COCCNc1nnc(SCC(=O)Nc2cc(-c3ccccc3)nn2-c2ccccc2)s1	-0.8	-13.3	97.7	i	0.87	0.4	100.5
CCCCC(=O)N/N=C/c1ccc(N2CCOCC2)c([N+](=O)[O-])c1	0.0	38.5	158.3	i	0.88	5.9	49.1
CC(=O)NCCNc1ccc([N+](=O)[O-])cc1C#N	·	·	·	i	0.9	4.6	102.3
O=C(NC1CCCC1)C1CC(=O)N(C2CCCCCCC2)C1 (configuration not stated)	0.0	-18.8	97.8	i	0.91	-5.1	101.7
Oc1ccc(C2Nc3cccc4cccc(c34)N2)c(O)c1	-1.5	5.6	193.1	i	0.99	8.9	90.3
C=CCN(CC=C)S(=O)(=O)c1ccc2nsnc2c1	0.2	-18.2	126.5	i	0.82	-10.2	104.4
Cn1cnnc1SCC(=O)Nc1ccc2c(c1)CCC2	-0.6	-46.0	107.4	i	0.87	-4.3	41.1
CC(=O)OCC1O[C@@H](O[C@@H]2C[C@H]3C(C)(C)[C@H](OC(C)=O)CC[C@]3(C)[C@H]3CC[C@]45C[C@]4(CC[C@H]5[C@@H](C)C[C@@H](O)[C@H](O)C(C)(C)O)[C@@]32C)[C@H](O)[C@@H](O)[C@@H]1O (some centres not stated)	3.0	0.0	75.0	i	0.47	-9.8	71.5
CCC/C(=N\NC(=O)c1ccc(CSc2nncn2C)cc1)c1ccccc1	-0.6	2.7	89.4	i	1.04	0.8	100.3
COC(=O)c1ccc(NC(=O)COC(=O)c2cccc3c(=O)c(C)c(-c4ccccc4)oc23)cc1	0.1	·	·	i	1.03	2.9	100.8

Gathered by group, those above with an aryl thioether with sulfur outside any ring (4)
mol	GALR2 ag	INS promoter inh	INS promoter inh cell count	HSV augment	HSV augment primary fold	PKD1 inh	RGS16-Gao
COCCCn1cnnc1SCC(=O)Nc1ccc(S(=O)(=O)N2CCCC2)cc1	-3.9	13.0	119.0	i	0.87	-2.4	98.6
COCCNc1nnc(SCC(=O)Nc2cc(-c3ccccc3)nn2-c2ccccc2)s1	-0.8	-13.3	97.7	i	0.87	0.4	100.5
Cn1cnnc1SCC(=O)Nc1ccc2c(c1)CCC2	-0.6	-46.0	107.4	i	0.87	-4.3	41.1
CCC/C(=N\NC(=O)c1ccc(CSc2nncn2C)cc1)c1ccccc1	-0.6	2.7	89.4	i	1.04	0.8	100.3

Assay outcomes (PubChem)
